Screening results deposited in PubChem BioAssay by Broad Institute.
Yeast UUG start: yeast start codon fidelity modulation; S. cerevisiae UUG-firefly luciferase reporter, luminescence/redox ratio; activity score, % at 18.7 µM; actives 0.13% (n = 350,000);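 active = replicate mean at a twofold rise or more, about +100% in these data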;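 note: firefly luciferase made from a UUG start codon reports start codon fidelity; reporter light over untreated wells divided by growth signal over untreated wells; some hits fall short of that in this replicate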
Env fusion inh: inhibitors of HIV Env-mediated cell fusion. HeLa-JRFL Env/CEM21 cell fusion, luciferase. AID 651610. actives 1.1% (n = 360,000). inhibition, % at 12.3 µM;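 active = mean replicate inhibition score of at least 50 and every replicate individually at or above 50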;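 note: 0% = plate neutral controls and 100% = maraviroc near 300 nM; one replicate is shown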
Numbers without * were called inactive; [ ] = remark or other dose.

How did COCCOC(=O)N1C(=O)[C@@]2(c3cc(C#CC4(O)CCCCCC4)ccc31)[C@H](c1ccc(OCCO)cc1)N1[C@H](c3ccccc3)[C@H](c3ccccc3)OC(=O)[C@H]1[C@@H]2C(N)=O do in these assays?
Yeast UUG start: -12; Env fusion inh: -48[16.7 µM]

Results for COCC#Cc1ccc2c(c1)O[C@@H](CN(C)C(=O)CN(C)C)[C@@H](C)CN([C@@H](C)CO)S2(=O)=O ?
Yeast UUG start: -6; Env fusion inh: 10[16.7 µM]

How did C[C@H]1CCCCO[C@H](CN(C)C(=O)C2CCCCC2)[C@@H](C)CN([C@@H](C)CO)C(=O)c2cc(NS(=O)(=O)c3ccc(Cl)cc3)ccc2O1 do in these assays?
Yeast UUG start: 1; Env fusion inh: -19[16.7 µM]

What do the screens show for `COc1cccc(-c2cnc3c(c2)C(=O)N([C@@H](C)CO)C[C@H](C)[C@@H](CN(C)CC2CCCC2)O3)c1`?
Yeast UUG start: -5; Env fusion inh: 10[16.7 µM]

What do the screens show for `C[C@H]1CN([C@@H](C)CO)C(=O)Cc2cc(NC(=O)c3ccncc3)ccc2O[C@@H]1CN(C)S(=O)(=O)c1cccs1`?
Yeast UUG start: -19; Env fusion inh: -8[16.7 µM]

How did COc1ccccc1CNC(=O)C[C@H]1C[C@H]2c3cc(NC(=O)CC4CC4)ccc3O[C@H]2[C@H](CO)O1 do in these assays?
Yeast UUG start: -8; Env fusion inh: 21[16.7 µM]

How did Cc1ccc(S(=O)(=O)Nc2cccc3c2O[C@H](CN(C)Cc2ccc(Oc4ccccc4)cc2)[C@@H](C)CN([C@H](C)CO)C3=O)cc1 do in these assays?
Yeast UUG start: -4; Env fusion inh: 3[16.7 µM]

Results for CCCC#Cc1cnc2c(c1)C(=O)N([C@H](C)CO)C[C@H](C)[C@@H](CN(C)C(=O)C1CCOCC1)O2 ?
Yeast UUG start: -6; Env fusion inh: 9[16.7 µM]

What do the screens show for `COc1ccc(S(=O)(=O)N[C@H]2CC[C@H](CC(=O)NCCc3ccccc3)O[C@@H]2CO)cc1`?
Yeast UUG start: 4; Env fusion inh: -6[16.7 µM]

Results for COc1ccccc1-c1ccc2c(c1)O[C@@H](CN(C)Cc1ccc3c(c1)OCO3)[C@@H](C)CN([C@@H](C)CO)S2(=O)=O ?
Yeast UUG start: -2; Env fusion inh: 27[16.7 µM]

How did C[C@@H]1CCCCO[C@@H](CN(C)C(=O)c2ccncc2)[C@H](C)CN([C@@H](C)CO)C(=O)c2cc(NS(C)(=O)=O)ccc2O1 do in these assays?
Yeast UUG start: -9; Env fusion inh: -8[16.7 µM]

How did O=C(N[C@H]1CC[C@@H](CCn2cc(C3(O)CCCC3)nn2)O[C@@H]1CO)C1CCOCC1 do in these assays?
Yeast UUG start: -6; Env fusion inh: 11[16.7 µM]

An excerpt from above in order of heavy-atom count, rising:
How did O=C(N[C@H]1CC[C@@H](CCn2cc(C3(O)CCCC3)nn2)O[C@@H]1CO)C1CCOCC1 do in these assays?
Yeast UUG start: -6; Env fusion inh: 11[16.7 µM]

Results for COCC#Cc1ccc2c(c1)O[C@@H](CN(C)C(=O)CN(C)C)[C@@H](C)CN([C@@H](C)CO)S2(=O)=O ?
Yeast UUG start: -6; Env fusion inh: 10[16.7 µM]

What do the screens show for `COc1cccc(-c2cnc3c(c2)C(=O)N([C@@H](C)CO)C[C@H](C)[C@@H](CN(C)CC2CCCC2)O3)c1`?
Yeast UUG start: -5; Env fusion inh: 10[16.7 µM]

Results for COc1ccccc1-c1ccc2c(c1)O[C@@H](CN(C)Cc1ccc3c(c1)OCO3)[C@@H](C)CN([C@@H](C)CO)S2(=O)=O ?
Yeast UUG start: -2; Env fusion inh: 27[16.7 µM]

How did C[C@@H]1CCCCO[C@@H](CN(C)C(=O)c2ccncc2)[C@H](C)CN([C@@H](C)CO)C(=O)c2cc(NS(C)(=O)=O)ccc2O1 do in these assays?
Yeast UUG start: -9; Env fusion inh: -8[16.7 µM]

How did C[C@H]1CCCCO[C@H](CN(C)C(=O)C2CCCCC2)[C@@H](C)CN([C@@H](C)CO)C(=O)c2cc(NS(=O)(=O)c3ccc(Cl)cc3)ccc2O1 do in these assays?
Yeast UUG start: 1; Env fusion inh: -19[16.7 µM]

How did COCCOC(=O)N1C(=O)[C@@]2(c3cc(C#CC4(O)CCCCCC4)ccc31)[C@H](c1ccc(OCCO)cc1)N1[C@H](c3ccccc3)[C@H](c3ccccc3)OC(=O)[C@H]1[C@@H]2C(N)=O do in these assays?
Yeast UUG start: -12; Env fusion inh: -48[16.7 µM]

(more compounds)
What do the screens show for `C[C@@H]1CCCCO[C@@H](CN(C)Cc2ccncc2)[C@H](C)CN([C@H](C)CO)C(=O)c2cc(NC(=O)CCC(F)(F)F)ccc2O1`?
Yeast UUG start: 6; Env fusion inh: -13[16.7 µM]

Results for C=CCN1C(=O)[C@@]2(O[C@@H](CCn3cc(CCO)nn3)[C@H]([Si](C)(C)c3ccc(OC)cc3)[C@H]2C)c2cc(NC(=O)c3ccc(OC)cc3)ccc21 ?
Yeast UUG start: -10; Env fusion inh: -2[16.7 µM]

How did C[C@@H]1CCCCO[C@H](CN(C)C(=O)Nc2ccc(C(F)(F)F)cc2)[C@@H](C)CN([C@H](C)CO)C(=O)c2cc(NC(=O)Cc3ccccc3)ccc2O1 do in these assays?
Yeast UUG start: -10; Env fusion inh: -89[16.7 µM]

Results for O=C(Nc1ccc2c(c1)[C@H]1C[C@H](CC(=O)N3CCc4ccccc4C3)O[C@H](CO)[C@H]1O2)NC1CCCC1 ?
Yeast UUG start: 11; Env fusion inh: 8[16.7 µM]

Results for C/C=C/c1cnc2c(c1)C(=O)N([C@H](C)CO)C[C@H](C)[C@H](CN(C)C(=O)C1CCCCC1)O2 ?
Yeast UUG start: 2; Env fusion inh: -12[16.7 µM]

Results for C[C@@H]1CN([C@H](C)CO)C(=O)Cc2cc(NS(=O)(=O)c3ccccc3)ccc2O[C@H]1CN(C)S(=O)(=O)c1ccc(F)cc1 ?
Yeast UUG start: 2; Env fusion inh: -16[16.7 µM]

Results for COc1ccc(NC(=O)Nc2ccc3c(c2)C(=O)N([C@@H](C)CO)C[C@H](C)[C@@H](CN(C)C(=O)Nc2ccccc2)OCCCC[C@H](C)O3)cc1 ?
Yeast UUG start: -6; Env fusion inh: -7[16.7 µM]

How did C[C@@H]1CN([C@@H](C)CO)C(=O)c2cc(NC(=O)Nc3ccc(F)cc3)ccc2O[C@@H](C)CCCCO[C@H]1CN(C)Cc1ccncc1 do in these assays?
Yeast UUG start: -3; Env fusion inh: 29[16.7 µM]

How did O=C(NCC[C@H]1CC[C@H](NS(=O)(=O)c2cccc(F)c2)[C@H](CO)O1)Nc1cc(F)ccc1F do in these assays?
Yeast UUG start: -6; Env fusion inh: -7[16.7 µM]

How did C[C@@H]1CCCCO[C@@H](CN(C)Cc2ccc(Cl)c(Cl)c2)[C@@H](C)CN([C@@H](C)CO)C(=O)c2cc(NC(=O)CCC(F)(F)F)ccc2O1 do in these assays?
Yeast UUG start: 22; Env fusion inh: -39[16.7 µM]

What do the screens show for `CO[C@H]1CN(C)C(=O)c2ccc(NC(=O)c3ccccc3F)cc2OC[C@@H](C)NC[C@H]1C`?
Yeast UUG start: -18; Env fusion inh: -2[16.7 µM]

What do the screens show for `C[C@H]1CN([C@@H](C)CO)C(=O)c2cc(-c3ccc(C#N)cc3)cnc2O[C@H]1CN(C)Cc1ccccn1`?
Yeast UUG start: -35; Env fusion inh: -4[16.7 µM]

Results for O=C(C[C@H]1C=C[C@@H](NS(=O)(=O)c2ccccc2)[C@H](CO)O1)N1CCc2ccccc2C1 ?
Yeast UUG start: 0; Env fusion inh: 9[16.7 µM]

Results for O=C(C[C@@H]1C[C@@H]2c3cc(NC(=O)CC4CC4)ccc3O[C@@H]2[C@H](CO)O1)NCc1cc(F)ccc1F ?
Yeast UUG start: -11; Env fusion inh: 0[16.7 µM]

Results for C[C@@H]1CCCCO[C@@H](CN(C)C)[C@H](C)CN([C@@H](C)CO)C(=O)c2cc(NC(=O)Nc3ccc4c(c3)OCO4)ccc2O1 ?
Yeast UUG start: 10; Env fusion inh: -8[16.7 µM]

Results for C[C@@H]1CN([C@@H](C)CO)C(=O)c2cc(C3=CCCC3)cnc2O[C@@H]1CN(C)C(=O)C1CCC1 ?
Yeast UUG start: 1; Env fusion inh: -4[16.7 µM]

Results for Cc1cc(C(=O)Nc2cccc3c2O[C@@H](CN(C)Cc2ccc4c(c2)OCO4)[C@H](C)CN([C@@H](C)CO)C3=O)n(C)n1 ?
Yeast UUG start: 16; Env fusion inh: -8[16.7 µM]

What do the screens show for `O=C(N[C@@H]1CC[C@@H](CCNS(=O)(=O)c2ccc(F)cc2)O[C@H]1CO)c1ccccn1`?
Yeast UUG start: -12; Env fusion inh: 20[16.7 µM]

How did COCC#Cc1ccc2c(c1)O[C@@H](CN(C)S(=O)(=O)c1ccc(F)cc1)[C@@H](C)CN([C@@H](C)CO)S2(=O)=O do in these assays?
Yeast UUG start: 10; Env fusion inh: 14[16.7 µM]

What do the screens show for `C[C@@H]1CN([C@H](C)CO)C(=O)c2cccc(NS(=O)(=O)c3cn(C)cn3)c2O[C@@H]1CN(C)Cc1ccccc1`?
Yeast UUG start: -17; Env fusion inh: 10[16.7 µM]

Results for O=C1CC[C@@H]2c3[nH]c4ccc(F)cc4c3CCN12 ?
Yeast UUG start: -11; Env fusion inh: -4[16.7 µM]

What do the screens show for `C[C@H](O)C#Cc1ccc2c(c1)O[C@H](CN(C)C(=O)c1ccccc1)[C@H](C)CN([C@@H](C)CO)S2(=O)=O`?
Yeast UUG start: 9; Env fusion inh: 18[16.7 µM]

How did COc1ccc(S(=O)(=O)Nc2ccc3c(c2)C(=O)N([C@H](C)CO)C[C@H](C)[C@H](CN(C)C(=O)NC(C)C)OCCCC[C@H](C)O3)cc1 do in these assays?
Yeast UUG start: -2; Env fusion inh: -27[16.7 µM]

Results for C[C@H]1CN([C@@H](C)CO)C(=O)Cc2cc(NC(=O)c3ccncc3)ccc2O[C@H]1CN(C)CC1CC1 ?
Yeast UUG start: -2; Env fusion inh: -2[16.7 µM]

Results for COc1ccccc1S(=O)(=O)N[C@H]1C=C[C@@H](CC(=O)NCc2cc(F)cc(F)c2)O[C@@H]1CO ?
Yeast UUG start: -11; Env fusion inh: 12[16.7 µM]

What do the screens show for `C[C@@H]1CN([C@H](C)CO)C(=O)c2cccc(NS(=O)(=O)c3ccccc3)c2O[C@H]1CN(C)Cc1ccncc1`?
Yeast UUG start: -18; Env fusion inh: -20[16.7 µM]

Results for C[C@@H]1CN([C@@H](C)CO)C(=O)c2cc(NC(=O)NC3CCCCC3)ccc2O[C@@H]1CN(C)Cc1ccncc1 ?
Yeast UUG start: -8; Env fusion inh: 29[16.7 µM]

How did N#C[C@H]1[C@H](c2ccc(-c3ccccc3F)cc2)[C@@H](CO)N1C(=O)Cc1ccccc1 do in these assays?
Yeast UUG start: -16; Env fusion inh: -31[16.7 µM]

What do the screens show for `COc1ccc(CN(C)C[C@@H]2Oc3ccc(NC(=O)Nc4ccccc4)cc3C(=O)N([C@@H](C)CO)C[C@H]2C)cc1`?
Yeast UUG start: -3; Env fusion inh: -6[16.7 µM]

Results for C[C@H](CO)N1C[C@H](C)[C@@H](CN(C)CC2CCCCC2)OCCCC[C@H](C)Oc2ccc(NC(=O)Nc3ccc(F)cc3)cc2C1=O ?
Yeast UUG start: 24; Env fusion inh: -18[16.7 µM]

What do the screens show for `O=C1c2ccccc2[C@@]2(Cc3ccccc3N(CCN3CCOCC3)C2=O)[C@H](c2ccc(CO)cc2)N1Cc1ccccc1Cl`?
Yeast UUG start: 55; Env fusion inh: -15[16.7 µM]

Results for C[C@H]1CN([C@@H](C)CO)C(=O)c2cc(C3=CCCC3)cnc2O[C@@H]1CN(C)C(=O)CN1CCOCC1 ?
Yeast UUG start: 17; Env fusion inh: -16[16.7 µM]

How did C[C@@H]1CCCCO[C@@H](CN(C)S(=O)(=O)c2cn(C)cn2)[C@@H](C)CN([C@@H](C)CO)C(=O)c2cc(NC(=O)Nc3cccc4ccccc34)ccc2O1 do in these assays?
Yeast UUG start: 0; Env fusion inh: 5[16.7 µM]

How did O=C(N[C@H]1CC[C@@H](CC(=O)N2CCc3ccccc3C2)O[C@H]1CO)C1CCC1 do in these assays?
Yeast UUG start: -3; Env fusion inh: 2[16.7 µM]

Results for C[C@@H]1CCCCO[C@H](CN(C)S(=O)(=O)c2ccc(F)cc2)[C@H](C)CN([C@@H](C)CO)C(=O)c2cc(NC(=O)Nc3ccc(F)cc3)ccc2O1 ?
Yeast UUG start: -8; Env fusion inh: -81[16.7 µM]

How did C[C@H](CO)N1C[C@H](C)[C@@H](CN(C)C(=O)C2CC2)Oc2cc(-c3cccc(C#N)c3)ccc2S1(=O)=O do in these assays?
Yeast UUG start: 11; Env fusion inh: 7[16.7 µM]

How did O=C(C[C@H]1C=C[C@@H](NC(=O)c2ccc(F)cc2)[C@H](CO)O1)NCc1ccncn1 do in these assays?
Yeast UUG start: -27; Env fusion inh: -22[16.7 µM]

How did O=C(C[C@H]1C=C[C@H](NS(=O)(=O)c2ccc(F)cc2)[C@@H](CO)O1)N1CCN(c2ccccc2)CC1 do in these assays?
Yeast UUG start: 10; Env fusion inh: -4[16.7 µM]

How did CCCNC(=O)N(C)C[C@@H]1Oc2ncc(C3=CCCCC3)cc2C(=O)N([C@H](C)CO)C[C@@H]1C do in these assays?
Yeast UUG start: 14; Env fusion inh: 22[16.7 µM]

What do the screens show for `O=C(Cc1ccccn1)NCC[C@H]1CC[C@H](NS(=O)(=O)c2ccccc2)[C@@H](CO)O1`?
Yeast UUG start: 7; Env fusion inh: 10[16.7 µM]

What do the screens show for `O=C(Nc1ccc(F)cc1)Nc1ccc2c(c1)[C@H]1C[C@@H](CC(=O)N3CCOCC3)O[C@@H](CO)[C@H]1O2`?
Yeast UUG start: -7; Env fusion inh: 12[16.7 µM]

What do the screens show for `CCCNC(=O)N[C@H]1CC[C@@H](CC(=O)N2CCN(C)CC2)O[C@H]1CO`?
Yeast UUG start: -9; Env fusion inh: 7[16.7 µM]

Only part of the results is shown, so the mix of outcomes need not match the whole.
